HNF4A DNA FP = change in binding of human HNF4 alpha to DNA. P41235. actives 0.3% (n = 360,000). activity change, % at 10 µM. HNF4a-FITC DNA binding, fluorescence polarization, 1 h. AID 1224865; in the data active = activity change above about 30%, passing the limit was not always enough;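 note: controls were the assay level and a saturating level of protein; the project sought stronger binding though the title names inhibitors; some compounds called inactive have numbers as strong as hits; positive values seem to mean higher polarization but the record does not say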
Target sequence (P41235 whole entry, looked up): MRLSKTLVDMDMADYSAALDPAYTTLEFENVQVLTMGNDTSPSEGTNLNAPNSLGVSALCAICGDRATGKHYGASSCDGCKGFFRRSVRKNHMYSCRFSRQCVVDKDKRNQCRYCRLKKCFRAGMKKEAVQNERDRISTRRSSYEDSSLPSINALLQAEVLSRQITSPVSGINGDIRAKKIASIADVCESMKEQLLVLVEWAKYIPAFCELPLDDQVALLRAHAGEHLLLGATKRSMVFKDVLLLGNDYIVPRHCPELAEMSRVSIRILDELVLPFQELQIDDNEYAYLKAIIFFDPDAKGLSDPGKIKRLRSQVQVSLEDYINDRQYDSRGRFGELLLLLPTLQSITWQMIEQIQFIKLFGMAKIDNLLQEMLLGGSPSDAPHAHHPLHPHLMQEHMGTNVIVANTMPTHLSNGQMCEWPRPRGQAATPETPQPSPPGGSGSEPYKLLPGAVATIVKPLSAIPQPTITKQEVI
* = called active by the depositor. Some of the compounds tested, so the mix of outcomes need not match the whole.

Start of the listing, in advance (five entries):
HNF4A DNA FP	SMILES
5.1	OC(c1ccc(F)c(F)c1)c1nc(-c2cnc3ccccc3c2)cs1 (stereo not given)
2.0	COc1ccc(S(=O)(=O)N(C)C[C@H]2OCc3cn(nn3)CCCC(=O)N([C@@H](C)CO)C[C@@H]2C)cc1
5.9	CC1=C(C(=O)N(C(C)C)C(C)C)CC(CC(=O)NCc2cccc3ccccc23)C(=O)N1CCCN1CCCC1=O (stereo not given)
2.0	Cc1ccc(S(=O)(=O)NC(=O)C2(C)CCN2C(=O)Cc2ccc(-c3ccccc3)cc2)nc1 (stereo not given)
-4.1	C[C@@H]1CN([C@H](C)CO)C(=O)c2cc(C#CC3CC3)cnc2O[C@H]1CN(C)S(C)(=O)=O

Results, previewed entries included:
HNF4A DNA FP	SMILES
5.1	OC(c1ccc(F)c(F)c1)c1nc(-c2cnc3ccccc3c2)cs1 (stereo not given)
2.0	COc1ccc(S(=O)(=O)N(C)C[C@H]2OCc3cn(nn3)CCCC(=O)N([C@@H](C)CO)C[C@@H]2C)cc1
5.9	CC1=C(C(=O)N(C(C)C)C(C)C)CC(CC(=O)NCc2cccc3ccccc23)C(=O)N1CCCN1CCCC1=O (stereo not given)
2.0	Cc1ccc(S(=O)(=O)NC(=O)C2(C)CCN2C(=O)Cc2ccc(-c3ccccc3)cc2)nc1 (stereo not given)
-4.1	C[C@@H]1CN([C@H](C)CO)C(=O)c2cc(C#CC3CC3)cnc2O[C@H]1CN(C)S(C)(=O)=O
4.0	c1ccc2cc(C3OCC4(CCCC4)CO3)ccc2c1
-2.1	Cc1cc2nc(-c3nnnn3C3CCCCC3)c(=O)[nH]c2cc1C
2.0	CCOC(=O)c1c(C)nsc1NC(=O)C1(C)CCN1C(=O)CC (stereo not given)
2.3	CC(C)CN1C(=O)CSCC1(C)C(=O)Nc1ccc2c(c1)OCCO2 (stereo not given)
-1.7	CCCS(=O)(=O)NC(=O)C1(C)CCN(C(=O)c2ccc(C(F)(F)F)nc2C)C1 (stereo not given)

The list continues:
HNF4A DNA FP	SMILES
-0.5	O=C(NCC1CC1)c1ccc2sc([C@H]3C[C@H](O)[C@@H](CO)O3)nc2c1
-0.1	CC(C)CNC(=O)C1(C)CCCN1C(=O)c1ccc2c(c1)CCO2 (stereo not given)
-0.4	C[C@H](CO)N1C[C@H](C)[C@@H](CN(C)Cc2cccc3c2OCCCO3)OCc2cnnn2CCCC1=O
1.7	COc1ccccc1N1CCN(Cc2cc(=O)oc3cc(C)ccc23)CC1
1.5	CC(C)C[C@H]1CNC(=O)C(=O)N1C[C@@H]1CCCN1C[C@H](CC(C)C)N1C[C@H](Cc2ccccc2)N(CCc2ccccc2)C(=O)C1=O
2.9	CN(C)c1cccc(CNC(=O)c2ccc3nc([C@H]4C[C@H](O)[C@@H](CO)O4)[nH]c3c2)c1
5.2	Cc1cccc(C)c1-n1nnnc1C1(C)CCC(=O)N1C1CCN(Cc2ccccc2)CC1 (stereo not given)
3.3	COc1ccc(CNC(=O)C2Cc3c(-c4ccccc4Oc4ccccc4)ccnc3O2)cc1OC (stereo not given)
-9.1	O=C1CCCCC(=O)[C@H](OC(=O)c2ccccc2)C[C@H](c2ccccc2)O1
3.6	COc1ccc(-c2cc(C(=O)Nc3cc(OC)c(OC)c(OC)c3)[nH]n2)c(C)c1

Continuation.
HNF4A DNA FP	SMILES
1.9	OC[C@@H]1CN(Cc2ccc(Cl)cc2)C[C@H](n2cnc3c(NCc4ccc(F)cc4)ncnc32)O1
-0.5	CCOC(=O)[C@]12CCC=C1N(Cc1ccc3c(c1)OCO3)C(=O)[C@H](CC(=O)NCCCOC)C2
3.7	COc1cc(F)ccc1-c1cc(C(=O)Nc2ccc(NC(C)=O)cc2)[nH]n1
0.1	CCCNC(=O)C1(C)CCN(C(=O)c2c(Cl)cccc2Cl)C1 (stereo not given)
-1.3	CC1(C(=O)Nc2cccc(OC(F)(F)F)c2)Cc2c(-c3cccc(C(F)(F)F)c3)ccnc2O1 (stereo not given)
-3.1	CC(=O)Oc1ccccc1Cn1c(C)c(C(=O)NCCC#N)sc1=O
2.7	CC(C)Oc1cc(F)ccc1-c1cc(C(=O)NCCCn2ccnc2)[nH]n1
0.3	Cc1cc2c(cc1C)-n1nnnc1C(N(Cc1ccccc1)Cc1ccccc1)C(=O)N2 (stereo not given)
3.1	O=C(Nc1c(-c2ccc3c(c2)OCO3)[nH][nH]c1=O)c1ccccc1
-0.4	CC(C)C[C@H]1CN([C@@H](CC(C)C)CN2CCC[C@@H]2CN2C(=S)NC[C@@H]2Cc2ccc(O)cc2)C(=S)N1CCc1ccccc1

Carrying on.
HNF4A DNA FP	SMILES
-1.3	O=C(Cn1sc2ccccc2c1=O)Nc1ccc(F)cc1
-0.4	CCOc1ccc(Cl)cc1-c1cc(C(=O)Nc2cc(OC)ccc2OC)[nH]n1
0.2	Cc1cccc(C)c1C(O)c1ncc(-c2ccccc2C(F)(F)F)[nH]1 (stereo not given)
-6.6	O=C1NC[C@@H](CCCCN2CCN(CC3CCCCC3)C(=O)C2=O)N(CC2CCCCC2)C1=O
-2.0	Cn1c(NCc2ccccc2)nc2cc(-c3ccccc3)sc2c1=O
1.0	CC(=O)N1CCN(C(C(=O)Nc2c(C)cccc2C)c2ccccc2OC(F)(F)F)CC1 (stereo not given)
1.0	CC1(C(=O)NS(=O)(=O)c2ccc3c(c2)CCO3)CCN1C(=O)C1(c2ccc(Cl)cc2)CCC1 (stereo not given)
3.8	OC(Cc1ccccc1Br)c1ncc(-c2ccc(Cl)cc2)[nH]1 (stereo not given)
-1.9	OC[C@H]1O[C@@H](c2nc(-c3ccc4c(c3)CCO4)no2)[C@H](O)[C@@H](O)[C@H]1O
0.8	CC1(Cc2ccc(OC(F)(F)F)cc2)C(=O)Nc2c(Cl)ccc(Cl)c21 (stereo not given)

Next section:
HNF4A DNA FP	SMILES
0.8	CC1(C(=O)NS(=O)(=O)c2ccc(C#N)cc2)CCN1C(=O)Cc1ccc(Cl)cc1Cl (stereo not given)
7.1	CC(=O)N1CCC(C(=O)N2c3ccccc3N=C(c3ccc4c(c3)OCO4)C2C(=O)Nc2c(C)cccc2C)CC1 (stereo not given)
0.7	COc1cc2ccccc2cc1C(=O)N/N=C/c1cccs1
-0.1	C[C@@H]1Cn2cnc(C(=O)NCC(=O)OC(C)(C)C)c2C(=O)N1
2.1	CCOC(=O)C1(C)CCN1C(=O)c1cc(F)cc(F)c1 (stereo not given)
6.7	CC(=O)OC[C@@H]1CN(Cc2ccccc2)C[C@H](n2ccc3c(N)ncnc32)O1
0.4	O=S1(=O)CC(N2CCN(Cc3ccccc3F)CC2)CN1Cc1cn(Cc2cccc(C(F)(F)F)c2)nn1 (stereo not given)
4.5	O=C1NC[C@H](CCCCN2CCN(CCC3CCCCC3)C(=O)C2=O)N(CC2CCCCC2)C1=O
-0.2	CC(C)C1C(=O)N(Cc2cn(CCC3OCCO3)nn2)CCS(=O)(=O)N1Cc1ccc(-c2ccc(F)cc2Cl)cc1 (stereo not given)
2.3	CCCNC(=O)c1cc(C2CCCN(S(=O)(=O)c3cccc4cccnc34)C2)on1 (stereo not given)

The list continues.
HNF4A DNA FP	SMILES
2.3	Cc1ccc(F)cc1C(=O)N1CCCC(c2cc(C(=O)NCc3ccccc3)no2)C1 (stereo not given)
0.1	CCCS(=O)(=O)NC(=O)C1(C)CCCN(C(=O)c2cc(C(C)(C)C)nn2C)C1 (stereo not given)
4.6	COc1ccccc1-c1cc(NC(C)=O)c2ncc(-c3ccc(F)cc3)n2c1
-0.4	COc1cc(C(O)c2nc(-c3cccc(C(F)(F)F)c3)cs2)ccc1F (stereo not given)
-3.4	NC(Cc1ccc(C(F)(F)F)cc1)c1csc(Nc2ccccn2)n1 (stereo not given)
0.8	Cc1ccc(C)c(C(O)c2ncc(-c3ccc4ccccc4c3)[nH]2)c1 (stereo not given)
0.8	COCCNc1nc(NCc2ccccc2)nc2ccsc12
-2.4	Cc1ccccc1-c1csc(C(O)c2cccc(Cl)c2)n1 (stereo not given)
23.2	O=c1cc(CN2CCCCCCC2)c2ccccc2o1
-4.8	CC1(C(=O)NCc2ccco2)Cc2c(-c3cccc(C(N)=O)c3)ccnc2O1 (stereo not given)

The list goes on.
HNF4A DNA FP	SMILES
0.7	CC(C)c1ccc(NC(=O)C2(C)Cc3c(-c4cccc(C(N)=O)c4)ccnc3O2)cc1 (stereo not given)
1.8	COc1ccc(S(=O)(=O)N2C[C@@H](O)COC[C@@H]3O[C@H](CC(=O)NCCCN4CCOCC4)CC[C@H]32)cc1
3.6	C=C1C(=O)[C@]23C[C@H]1CCC2[C@]1(C)C(=O)CC[C@@](C)(C(=O)O)C1C[C@@H]3O (stereo not given in full)
-0.1	COc1ccc(NC(=O)C(C2CC2)n2c(=O)c(-c3ccccc3)nc3ccccc32)cc1 (stereo not given)
23.0	CC(=O)Nc1cc(-c2ccc(N)nc2)cn2c(-c3cccc(C(F)(F)F)c3)cnc12
-1.4	C[C@H]1CN([C@@H](C)CO)S(=O)(=O)c2ccc(Br)cc2O[C@H]1CN(C)C(=O)Nc1ccccc1F
1.3	CCc1ccc(C(O)c2ncc(-c3cccc(C(F)(F)F)c3)[nH]2)cc1 (stereo not given)
5.9	O=c1[nH][nH]c2c1[C@H](c1ccc(Cl)cc1)O[C@H](CCc1ccccc1)C2
-0.7	CCCCCCN1C[C@@H](O)[C@H](n2cc(C3CC3)nn2)C[C@@H]1c1ccccc1
0.9	Cc1ccc(S(=O)(=O)NC(=O)C2(C)CCN2C(=O)C2CCCCC2)nc1 (stereo not given)

(next part)
HNF4A DNA FP	SMILES
1.6	O=C(NCc1cccs1)c1ccc2nc([C@@H]3O[C@H](CO)[C@H](O)[C@H](O)[C@H]3O)[nH]c2c1
1.4	CC(C)NC(=O)C1(C)CCCN1C/C=C/c1ccccc1 (stereo not given)
5.8	Cc1cc2nc(-c3cccc(Cl)c3)c(Cc3cccc(Cl)c3)n2c(C)c1Br
4.3	CCOC(=O)C1=C[C@@H](C(C)(C)C)N(S(=O)(=O)c2ccc(C)cc2)[C@H]1c1cccc(Cl)c1
1.1	CC1(C(=O)NS(=O)(=O)c2ccc(Br)cc2)CCN1C(=O)Cc1ccsc1 (stereo not given)
-1.6	CS(=O)(=O)c1ccc(Nc2nc(C(N)c3ccccc3)cs2)cc1 (stereo not given)
0.5	Oc1ccc(C[C@H]2CNC(=S)N2C[C@H]2CCCN2C[C@H](Cc2ccccc2)N2C[C@H](Cc3ccc(O)cc3)N(CCc3ccccc3)C2=S)cc1
-2.0	CC1(C(=O)NC2CCc3ccccc32)CCN1CCc1ccccc1 (stereo not given)
5.5	COc1ccc(-c2cnc3c(NC(C)=O)cc(-c4ccc(C(=O)N5CCOCC5)cc4)cn23)cc1OC
8.3	CC(=O)Nc1cc(-c2ccc(C(=O)NC3CC3)cc2)cn2c(-c3cccc(C(C)=O)c3)cnc12

(more compounds)
HNF4A DNA FP	SMILES
2.8	CCc1nc2c(OCc3ccc(Cl)cc3Cl)cccn2c1N(C)C(=O)CC(C)C
3.9	O=C(O)CCC(=O)c1ccc(C2CCCCCC2)cc1
0.2	CC1(C(=O)Nc2ccc3c(c2)OCCO3)CCN1Cc1csc2ccccc12 (stereo not given)
2.1	COC(=O)[C@]12CCCCC=C1N(Cc1ccc3c(c1)OCO3)C(=O)[C@H](CC(=O)NCCCN1CCCC1=O)C2
-1.4	COc1ccc(C(=O)N2CCCC2(C)C(=O)NCC(C)C)cc1C(F)(F)F (stereo not given)
1.7	CCCCNC(=O)C1(C)CCN1C(=O)c1cccc2c1OCCO2 (stereo not given)
-0.7	C=CCNc1nc2cc(-c3ccc(C(=O)N4CCOCC4)cc3)sc2c(=O)n1C
-0.3	CN(C)c1ccc(CNC(=O)C2(C)Cc3c(-c4cccc(C(N)=O)c4)ccnc3O2)cc1 (stereo not given)
1.6	CC1CCC(NC(=O)C2CCC(CNS(=O)(=O)c3ccc4c(c3)C(C)(C)C(=O)N4C)CC2)CC1 (stereo not given)
6.5	CC(=O)c1cccc(-c2cnc3c(NC=O)cc(-c4ccccc4Oc4ccccc4)cn23)c1

(listing goes on)
HNF4A DNA FP	SMILES
3.9	CCCCCc1c(-c2ccccc2F)ncn1CCc1ccccc1OC
-0.3	CCCS(=O)(=O)NC(=O)C1(C)CCN(C(=O)c2ccc(SC(F)(F)F)cc2)C1 (stereo not given)
4.9	COc1ccc(NC(=O)C2(C)Cc3c(-c4ccc(N(C)C)cc4)ccnc3O2)cc1 (stereo not given)
-0.6	COc1cc2c(cc1OC)C(O)=CC(=O)C2=O
1.9	CCN(C)C1CN(Cc2cn(Cc3ccccc3)nn2)S(=O)(=O)C1 (stereo not given)
1.5	C[C@@H]1CN([C@H](C)CO)C(=O)CCCn2cc(nn2)CO[C@H]1CN(C)C(=O)c1ccncc1
2.8	COc1ccc(OC)c(NC(=O)C2(C)CCN2C(=O)Cc2ccccc2)c1 (stereo not given)
-5.1	CC(C)CNC(=O)c1cccc2c(-c3cccc(C(N)=O)c3)coc12
1.7	COC(=O)c1ccc2nc(-c3ccc(OC)c(OC)c3)c(Cc3ccccc3)n2c1
0.1	Cc1oc(-c2ccc(F)cc2F)nc1CN1CCN(C(=O)c2ccco2)CC1

An excerpt of these results, bar-delimited.
smiles | HNF4A DNA FP
CN(C)c1cccc(CNC(=O)c2ccc3nc([C@H]4C[C@H](O)[C@@H](CO)O4)[nH]c3c2)c1 | 2.9
CCc1nc2c(OCc3ccc(Cl)cc3Cl)cccn2c1N(C)C(=O)CC(C)C | 2.8
C[C@@H]1CN([C@H](C)CO)C(=O)c2cc(C#CC3CC3)cnc2O[C@H]1CN(C)S(C)(=O)=O | -4.1
COc1ccccc1N1CCN(Cc2cc(=O)oc3cc(C)ccc23)CC1 | 1.7

New compounds follow:
HNF4A DNA FP	SMILES
0.7	CCOC(=O)N(C)c1c(CC)nc2c(OCc3ccc(C(F)(F)F)cc3)cccn12
3.2	CCCNC(=O)C1(C)CCCN(C(=O)C(c2ccccc2)c2ccccc2)C1 (stereo not given)
-0.2	O=C(NCCCN1CCOCC1)c1[nH]c(C(F)(F)F)nc1-c1ccccc1
-6.3	CC1=C(C(=O)N2CCOCC2)CC(CC(=O)NC2CC2)C(=O)N1Cc1ccc(C(C)(C)C)cc1 (stereo not given)
